Rango release inh = qHTS Assay for Inhibitors of RanGTP induced Rango (Ran-regulated importin-beta cargo) - Importin beta complex dissociation. Potency, µM (top dose mostly 46.1 µM), for inactives: top-dose activity change, negative = inhibition. Biochemical FRET Rango-importin beta, RanGTP-induced dissociation. 340,000 compounds, 0.071% hits. Snurportin-1 (Homo sapiens) + GTP-binding nuclear protein Ran (Homo sapiens) + Importin …; active means falling FRET ratio curve, often poorly fitted, with flat reads before Ran was added; inconclusive means other falling curves, or compound fluorescence or quenching; inactive means flat or rising ratio curve;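 further: potency means the concentration at half of the fitted maximal effect; % of control where 0% means no effect; nearly all actives have a fitted effect of over 45% in size; -100% = wells without RanGTP and RCC1; the record marks most hits as doubtful in a second field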
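Compounds preincubate 5 min with complex of recombinant Rango and importin beta in PBS with 1 mM DTT. Ran (0.6 uM) loaded with 2 mM GTP plus 0.2 uM RCC1 starts dissociation; FRET is recorded 45 min later.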
GLA inh pH 4.5 = qHTS Assay for Inhibitors of Human alpha-Galactosidase at pH 4.5; AID 1467, 2008; purified enzyme, 4-MU-alpha-Gal fluorescence, pH 4.5; activity change, negative = inhibition, % at 105 µM; 230,000 tested, under 10 active; inconclusive = small, poorly fitted or top-dose-only inhibition, or a rising curve; inactive = flat fitted curve, though single readings scatter; no compound was filed as active;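 further: 0% = full activity with enzyme and -100% = basal without enzyme; dose as in the result columns while the protocol names 77 µM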
Target sequence (P06280 whole entry, looked up): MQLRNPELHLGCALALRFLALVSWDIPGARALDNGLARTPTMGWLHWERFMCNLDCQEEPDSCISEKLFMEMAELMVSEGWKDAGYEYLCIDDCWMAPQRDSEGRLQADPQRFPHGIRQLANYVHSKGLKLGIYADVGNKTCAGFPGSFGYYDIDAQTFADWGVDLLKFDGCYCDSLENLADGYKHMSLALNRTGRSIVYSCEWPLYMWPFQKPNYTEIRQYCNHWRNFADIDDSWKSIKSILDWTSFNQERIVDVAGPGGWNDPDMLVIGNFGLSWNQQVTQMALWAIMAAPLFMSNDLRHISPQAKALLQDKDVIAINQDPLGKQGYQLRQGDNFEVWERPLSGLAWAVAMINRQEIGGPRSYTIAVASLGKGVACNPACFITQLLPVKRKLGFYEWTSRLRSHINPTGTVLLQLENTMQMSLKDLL
miR-21 reporter = qHTS Assay for Modulators of miRNAs and/orActivators of miR-21. HeLa miR-21 FLuc reporter, luciferase, 48 h. Potency, µM (top dose mostly 38.3 µM), for inactives: top-dose reporter change, positive = more light. 340,000 tested, under 10 active. AID 2288, 2010; active = well fitted rising curve with a large enough effect; inconclusive = small, poorly fitted or top-dose-only effect; inactive = no such curve, though single readings can be large or run the other way;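 further: % of control where 0% means no effect; miR-21 action dims this reporter so a rising signal means less miR-21 action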
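HeLa cells endogenously expressing miR-21, stably carrying CMV-driven firefly luciferase with a downstream miR-21 binding site, 2000 cells/well. Titrations up to approximately 40 uM, 48 hours; luciferase luminescence read.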
Rango complex inh = qHTS Assay for Inhibitors of Rango (Ran-regulated importin-beta cargo) - Importin beta complex formation; Potency, µM (series often up to 92.2 µM), without a hit: at the top dose inhibition of complex formation; Rango CFP/YFP FRET sensor + importin beta, 45 min; 340,000 compounds, 0.031% hits; active = rising FRET ratio curve, often small or poorly fitted; inconclusive = mostly compound fluorescence or quenching in the first reads; inactive = flat curves in all reads;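 further: potency means the concentration at half of the fitted maximal effect; 0% = DMSO wells and 100% = buffer wells lacking importin beta; nearly all actives have a fitted effect of over 15% in size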
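FRET biosensor (snurportin 1 IBB flanked by EYFP and cerulean), 50 nM, with compound 5 min, then 0.125 microM importin beta in PBS, 1 mM DTT, 0.02% Tween-20, 0.1% BSA. CFP/YFP ratio read after 45 min at room temperature; pre-read flags interference.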
An asterisk follows results filed as active; ? = inconclusive; . = not tested or not shown; & = joins results of further samples; [ ] = remark or other dose.

GLA inh pH 4.5	miR-21 reporter	Rango complex inh	Rango release inh	Molecule
.	15.4%	-2.6%	6.7%	O=C(Nc1cccnc1)c1ccc(Cl)c(S(=O)(=O)N2CCCCC2)c1
6.2	-5.2%	0.0%	0.2%	COc1ccc(CCN=C(N)NS(=O)(=O)c2cccs2)cc1OC
.	-2.1%	-1.4%	-4.2%	O=C(c1cccs1)N1CCC(c2nc3c(nnn3Cc3cccc(Cl)c3)c(=O)[nH]2)CC1
.	-1.2%	-2.1%	-7.0%	CCc1nc(SCC(=O)N2CCCC2)c2c(=O)n(C)c(=O)n(C)c2n1
0.4	2.8%	?	-8.0%	CCn1cc(C(=O)NCc2ccco2)c(=O)c2cc(S(=O)(=O)N3CCCC3)ccc21
-4.2	22.2%	-2.6%	-8.6%	CC1(C)SC(=S)N(/N=C/c2ccc(O)cc2)C1N(O)C(=O)Nc1ccc([N+](=O)[O-])cc1 (centres undefined)
.	-25.2%	1.7%	-8.5%	O=[N+]([O-])c1ccccc1N/N=C/c1ccccc1
.	.	0.9%	-8.4%	CC(=O)c1sc2c(c1OC(=O)c1ccc(Cl)cc1)c(=O)n(-c1ccccc1)c(=S)n2-c1ccccc1
.	.	-2.2%	18.6%	CCCNC(=O)C(Cc1ccc(OC)cc1)NC(=O)c1ccc(Cl)cc1 (centres undefined)
.	-4.9%	-1.7%	?	CCCc1cc(=O)oc2cc(C)cc(OCC(=O)NCCN3CCOCC3)c12
?	-2.1%	2.3%	-13.2%	CCOc1cc(-c2noc(N)c2C#N)cc(OCC)c1OCC
-8.0	-5.0%	-0.2%	-8.1%	O=C(Nc1ccc(Cl)cc1)Nc1nnc(CSCc2ccccc2)s1
-26.2	-12.8%	3.9%	19.2%	CCCCN(C)C(=S)Nc1ccc(Oc2ccccc2)cc1
.	4.2%	1.7%	-2.5%	Cc1ccccc1NC(=O)CCCCCN1C(=O)[C@@H]2Cc3ccccc3CN2C1=O
-20.1	0.8%	4.1%	0.5%	O=C(Nc1ccc(S(=O)(=O)N2CCCCC2c2cccnc2)cc1)c1c(F)cccc1F (centres undefined)
.	-13.7%	0.4%	-26.4%	CCCN1C2CCCC1CC(NC(=O)NC13CC4CC(CC(C4)C1)C3)C2 (centres undefined)
4.5	-11.6%	5.9%	0.9%	Cc1cc(NC(=O)CN2CCN(c3ccc(O)cc3)CC2)no1
.	26.3%	?	-12.1%	COc1ccccc1N1CCN(C(=O)c2sc3nc(C)nc(N4CCN(c5ccccn5)CC4)c3c2C)CC1
3.7	-56.8%	3.3%	1.0%	O=Cc1c(OCc2ccccc2)ccc2ccccc12
.	.	0.3%	-1.5%	Cc1nc2ccc(NC(=O)[C@H](C)N3C(=O)C4CC=CCC4C3=O)cc2s1 (some centres undefined)

(list continues)
GLA inh pH 4.5	miR-21 reporter	Rango complex inh	Rango release inh	Molecule
.	0.0%	-1.5%	-5.3%	Cc1c(OC(C)C(=O)N2C[C@H]3C[C@@H](C2)c2cccc(=O)n2C3)ccc2c3c(c(=O)oc12)CCC3 (some centres undefined)
.	.	0.1%	-1.1%	CN(C)C(CNC(=O)c1ccccc1OCc1ccc(Cl)cc1)c1ccco1 (centres undefined)
-3.9&-1.6&-2.1&-3.8	29.9%	6.6%&8.6%	-17.1%&11.3%	COc1ccc2cc3[n+](cc2c1OC)CCc1cc2c(cc1-3)OCO2
-6.8	0.3%	-0.3%	3.7%	Cn1c(Oc2ccc(F)cc2)c(C=O)c2ccccc21
0.9	-4.3%	2.4%	?	Cc1cc2occ(CC(=O)NC3=NCCS3)c2cc1C(C)C
0.8	1.5%	1.6%	9.6%	CCC(C(=O)NC(C)(C)C)N(C(=O)Cn1nnc(-c2ccccc2F)n1)c1cccc2c1CCCC2 (centres undefined)
-14.0	-16.8%	-0.3%	-12.9%	N#Cc1c(Nc2ccccc2)sc(C(=O)c2ccccc2)c1N
2.8	-3.7%	?	9.1%	COC(=O)c1cc(Br)ccc1-c1ccc(/C=N/n2nnnc2N)o1
.	2.7%	1.1%	-1.5%	O=C(NN1CC(C(=O)OCc2ccc(Br)cc2)CC1=O)c1ccccc1 (centres undefined)
5.3	-5.2%	-0.7%	-0.4%	CCSc1nc2sc3c(c2c(=O)[nH]1)CC(C)(CC)OC3 (centres undefined)
.	.	0.2%	2.7%	c1ccc(NCCSc2nc3ccccc3s2)cc1
2.2	-5.7%	-0.8%	-5.4%	CCOc1ccccc1N(CC)C(=O)Cn1ncc2c(=O)oc3ccccc3c21
-15.1	-0.1%	0.0%	14.4%	O=C(N/N=C/c1ccc(N2CCOCC2)o1)c1cccc([N+](=O)[O-])c1
8.9	-2.2%	4.2%	-6.3%	CCn1cc(NC(=O)Nc2ccc(OC)c(OC)c2)c(C(N)=O)n1
.	-0.6%	-1.4%	3.2%	CCCCOc1ccc(C(=O)N2CCNC(=O)C2)cc1
-3.9	5.5%	-5.6%	2.3%	Cc1[nH]nc2ncc(C(=O)c3cc(Cl)cc(Cl)c3O)cc12
-8.8	-0.3%	0.6%	-8.0%	CCCCN(C)CCn1c(=S)[nH]c2ncccc2c1=O
-25.6	-7.8%	-0.6%	-8.3%	CCOC(=O)Cn1nc(C)n(-c2ccc(C(C)(C)C)cc2)c1=O
.	.	0.2%	62.9%	O=C1[C@@H]2[C@H](C(=O)N1CC(O)COCc1ccccc1)C1C=C[C@H]2C1 (some centres undefined)
3.0	-8.6%	1.9%	12.7%	Cc1ccc(C(=O)CSc2nnc(Cn3nnc4ccccc43)n2C)cc1

Profiles, quoted from the list.
O=C1[C@@H]2[C@H](C(=O)N1CC(O)COCc1ccccc1)C1C=C[C@H]2C1 (some centres undefined) is entered as GLA inh pH 4.5 = .; miR-21 reporter = .; Rango complex inh = 0.2%; Rango release inh = 62.9%
Cc1ccc(C(=O)CSc2nnc(Cn3nnc4ccccc43)n2C)cc1 is entered as GLA inh pH 4.5 = 3.0; miR-21 reporter = -8.6%; Rango complex inh = 1.9%; Rango release inh = 12.7%

More entries follow.
GLA inh pH 4.5	miR-21 reporter	Rango complex inh	Rango release inh	Molecule
.	.	-0.2%	0.7%	CC(=NNC(=O)c1ccncc1)c1ccc(Cl)cc1Cl
5.9	0.0%	-4.1%	12.4%	CCNC(=S)N1CCN(C(=O)C(Cc2ccccc2)NC(C)=O)CC1 (centres undefined)
1.0	-3.3%	.	.	Cc1nnc2sc(SCc3ccccc3)nn2c1=O
.	-1.1%	-2.0%	-0.9%	Cc1ccc(NC(=O)C2CCCN(S(=O)(=O)c3ccc4[nH]c(=O)ccc4c3)C2)nc1 (centres undefined)
.	.	3.2%	-4.4%	COc1ccc(N2CCN(CCS(=O)(=O)c3cc(Cl)ccc3Cl)CC2)cc1
.	-11.6%	-3.0%	4.1%	CSc1nsc(SCC(=O)Nc2cccc(NC(C)=O)c2)n1
0.3	-5.0%	?	9.5%	CCN=C1SC(C(=O)NCCc2ccccc2)CC(=O)N1CC (centres undefined)
-2.4	-15.7%	1.7%	-14.2%	O=C(Cc1ccccc1)Nc1nc(-c2cccs2)cs1
-5.1	-3.9%	.	.	O=[N+]([O-])c1ccc(-c2ccc(/C=N/c3c(-c4ccco4)nc4ccccn34)o2)c(Cl)c1
-5.1	-39.1%	?	-12.5%	Nc1nnc(CC(=O)N/N=C/c2ccc(-c3cccc(C(=O)O)c3)o2)s1
0.6[21.1 µM]	3.3%	-3.4%	-3.7%	CCS(=O)(=O)n1nc(-c2cccnc2)nc1NCc1ccc(F)cc1
-12.5	0.3%	?	-19.5%	Cc1cc(CNC(=O)CC2C(=O)NCCN2CC(C)(C)C)nn1C (centres undefined)
.	.	-0.5%	-11.8%	CCCOc1ccc(C(=O)CCC(=O)NNC(=O)c2cccs2)cc1
.	-1.8%	-0.1%	-9.0%	C/C(=N\NC(N)=S)C1=CCC2C3CC[C@H]4CC(O)CC[C@]4(C)C3CC[C@]12C (some centres undefined)
1.9	1.2%	-1.8%	1.2%	Cc1ccc(NC(=O)c2c([N+](=O)[O-])c(C(C)(C)C)nn2C)c(C)c1
.	-16.5%	-0.3%	7.7%	Cc1nnc(Nc2ccc(F)cc2)c2ccccc12
-0.1	-4.5%	-4.5%	6.6%	COc1ccc(-c2[nH]ncc2CNC(C)CCn2cccn2)cc1F (centres undefined)
.	25.7%	-0.5%	-13.7%	CCS(=O)(=O)Nc1cccc(C2=NN(C(=O)c3ccco3)C(c3ccco3)C2)c1 (centres undefined)
.	6.5%	-6.9%	-1.9%	O=C(Nc1ccc(F)cc1F)c1cc(-c2ccco2)nc2ccccc12
.	2.2%	6.0%	16.1%	CC(C)[C@@H](COc1ccccc1)N1CCN(Cc2ccccc2)CCC1=O

2 records drawn at random from the list so far, as already listed:
GLA inh pH 4.5	miR-21 reporter	Rango complex inh	Rango release inh	Molecule
.	-1.8%	-0.1%	-9.0%	C/C(=N\NC(N)=S)C1=CCC2C3CC[C@H]4CC(O)CC[C@]4(C)C3CC[C@]12C (some centres undefined)
-5.1	-3.9%	.	.	O=[N+]([O-])c1ccc(-c2ccc(/C=N/c3c(-c4ccco4)nc4ccccn34)o2)c(Cl)c1

Going on with the list.
GLA inh pH 4.5	miR-21 reporter	Rango complex inh	Rango release inh	Molecule
.	.	0.8%	-6.1%	Cc1c(C(=O)N2CCN(CC(=O)Nc3ccccc3Cl)CC2)oc2ccc(Br)cc12
6.4	-2.1%	-0.1%	-5.6%	COC(=O)c1ccccc1NC(=O)CSc1nc(O)cc(=O)n1C1CCCC1
.	.	-0.5%	-10.7%	CS(=O)(=O)c1ccc(Cl)c(NC(=O)COc2ccc3c(c2)CCC3)c1
-4.2	-0.6%	2.6%	-3.3%	O=C(O)C(NS(=O)(=O)c1cccc2nsnc12)c1ccccc1 (centres undefined)
.	27.9%	-1.4%	-14.3%	CC1Sc2ccc(S(=O)(=O)CCC(=O)N3CCN(c4ccccc4F)CC3)cc2NC1=O (centres undefined)
-1.3	0.4%	-0.4%	0.5%	O=C(NCc1csc2ccc(Cl)cc12)Nc1cccc2ccccc12
-8.7	-0.9%	-0.3%	19.3%	C/C(=N\Nc1nc(N2CCCCC2)nc(N2CCOCC2)n1)c1ccccc1O
-1.9	-1.5%	1.2%	-0.8%	O=C1CCc2ccccc2N1
1.8	-1.6%	0.6%	?	O=C1C2C3C=CC(C3=C(c3ccccc3)c3ccccc3)C2C(=O)N1CCO (centres undefined)
.	6.8%	1.1%	-15.7%	Cn1c(=O)oc2cc(S(=O)(=O)N3CCC(C(=O)N4CCN(c5ccc(F)cc5)CC4)CC3)ccc21
0.2	-3.3%	-0.8%	-5.4%	Cc1cccc(-c2cc3nc4c(c(N5CCCC(O)C5)n3n2)CCC4)c1 (centres undefined)
5.9	-10.5%	-0.2%	0.5%	COCCN(C(=O)CCCC(=O)Nc1ccccn1)C(C(=O)NC1CCCCC1)c1ccc(C)cc1 (centres undefined)
.	.	-0.5%	14.1%	COc1ccccc1CNC(=O)COC(=O)C1CCN(S(=O)(=O)c2ccc(C)c(C)c2)CC1
-1.2	-1.3%	-2.6%	2.3%	Cc1ccc(N=Nc2c(O)ccc3n[nH]nc23)cc1
1.7	4.7%	?	0.6%	CCOc1ccccc1N(CC(=O)NC1CCCCC1)S(C)(=O)=O
8.8	-27.9%	-3.2%	35.8%	Cc1cc(C(=O)CSc2nncn2C)c(C)n1-c1ccccc1
.	-25.3%	-1.5%	-5.8%	C/C(=N\NC(=O)c1ccccc1F)c1cccc(NC(=O)c2ccccc2)c1
0.7	11.7%	-1.4%	-14.3%	COc1ccc(NS(=O)(=O)c2cccc(NC(=O)c3ccccn3)c2)cc1
10.6	-80.7%	.	.	Cc1ccc2c(c1)c1ncnc(N3CCC4(CC3)OCCO4)c1n2C
-1.4	-5.9%	-4.3%	-1.3%	CC(=O)Nc1ccc(N2C(=O)C3C4CC(=O)C(c5ccccc54)C3C2=O)cc1 (centres undefined)
.	0.2%	0.0%	13.4%	CSc1ncccc1C(=O)N1CCN(S(=O)(=O)c2cc(C)ccc2C)CC1

The list is partial. The share of hits here may be higher or lower than overall.
